Env fusion inh – blocks HIV Env-driven cell-cell fusion; inhibition, % at 12.3 µM; HeLa-JRFL Env/CEM21 cell fusion, luciferase; 1.1% of 360,000 active;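 active means mean replicate inhibition score of at least 50 and every replicate individually at or above 50; inconclusive means only one of the two criteria met; inactive means mean below 50 and not all replicates reaching 50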;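 further: 0% = plate neutral controls and 100% = maraviroc near 300 nM; one replicate is shown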
An asterisk follows results filed as active; ? = inconclusive; [ ] = dose if it differs, or a comment.

SMILES	Env fusion inh
COCC(=O)N[C@H]1C=C[C@H](CC(=O)NCc2ccc(Cl)cc2)O[C@H]1CO	14[16.7 µM]
CCCN1C[C@H](C)[C@H](OC)CN(C)C(=O)c2cc(NC(=O)C3CCC3)ccc2OC[C@@H]1C	-1[16.7 µM]
C[C@H](CO)N1C[C@H](C)[C@@H](CN(C)S(=O)(=O)c2ccc(F)cc2)Oc2ccc(NC(=O)Nc3ccc4c(c3)OCO4)cc2CC1=O	17[16.7 µM]
CO[C@H]1CN(C)C(=O)c2cc(NC(=O)NC(C)C)ccc2OC[C@@H](C)N(Cc2cncnc2)C[C@@H]1C	-20[16.7 µM]
CC(C)NC(=O)Nc1ccc2c(c1)C(=O)N([C@@H](C)CO)C[C@H](C)[C@H](CN(C)C)OCCCC[C@@H](C)O2	6[16.7 µM]
Cc1ccc(S(=O)(=O)NCC[C@@H]2CC[C@H](NC(=O)CC3CC3)[C@@H](CO)O2)cc1	15[16.7 µM]
C[C@@H]1CN([C@@H](C)CO)S(=O)(=O)c2ccc(C#CC3CC3)cc2O[C@@H]1CN(C)C(=O)Nc1cc(F)ccc1F	-62[16.7 µM]
CC(C)(C)c1ccc(-c2cc(NC(=O)Cc3c[nH]c4ccccc34)ccc2Nc2cccnc2)cc1	74*
C[C@@H]1CN([C@@H](C)CO)C(=O)Cc2cc(NS(C)(=O)=O)ccc2O[C@H]1CN(C)Cc1ccc(Cl)c(Cl)c1	-2[16.7 µM]
CO[C@H]1CC[C@H]2CCOc3ccc(C#N)cc3C(=O)N(C)[C@@H](C)C(=O)N(C)C[C@H]1O2	9[16.7 µM]
CCCNC(=O)N1C[C@H](C)[C@@H](OC)CN(C)C(=O)c2ccc(NS(=O)(=O)CC(F)(F)F)cc2OC[C@H]1C	-1[16.7 µM]
CN1C(=O)c2cc(NC(=O)C3CCOCC3)ccc2OC[C@@H]2O[C@H](CC(=O)NCCc3ccncc3)CC[C@@H]21	6[16.7 µM]
COc1ccccc1-c1ccc(OCCCN2CCC(C(O)(c3ccccc3)c3ccccc3)CC2)cc1	97*
O=C(C[C@@H]1CC[C@@H]2[C@H](COC[C@H](O)CN2Cc2nccs2)O1)N1CCC(Cc2ccccc2)CC1	0[16.7 µM]
C[C@@H]1CCCCO[C@@H](CN(C)S(=O)(=O)c2ccc(Cl)cc2)[C@H](C)CN([C@@H](C)CO)C(=O)c2cc(N(C)C)ccc2O1	40[16.7 µM]
Cc1noc(C)c1NC(=O)N(C)C[C@@H]1OCc2ccccc2-c2c(n(C)c3ccccc23)C(=O)N([C@@H](C)CO)C[C@H]1C	-17[16.7 µM]
Nc1ncnc2c1ncn2[C@@H]1O[C@H](C(=O)N[C@@H](CCc2ccccc2)C(=O)N2CCN(C(=O)N3CCOCC3)CC2)[C@@H](O)[C@H]1O	-29
COC(=O)[C@]12C[C@H](CC(=O)NCCCN3CCCC3=O)C(=O)N(Cc3ccc4c(c3)OCO4)C1=C[C@H](COCc1ccccc1)O[C@@H]2C	2
O=C(C[C@H]1CC[C@@H](NC(=O)c2ccccc2)[C@@H](CO)O1)NCCc1ccncc1	-4[16.7 µM]
CCCN1C[C@H](C)[C@@H](OC)CN(C)C(=O)c2cc(NC(=O)Nc3ccccc3F)ccc2OC[C@@H]1C	21[16.7 µM]
CCCC(=O)Nc1ccc2c(c1)C(=O)N(C)[C@H]1CC[C@H](CC(=O)NCc3cccc(F)c3)O[C@@H]1CO2	-1[16.7 µM]
COC(=O)C1=C(C)N(Cc2ccccc2C(F)(F)F)C(=NCc2ccc3c(c2)OCO3)NC1c1cccc(Cl)c1 (stereo not given)	-276
O=C(C[C@@H]1C=C[C@H](NC(=O)Cc2cccnc2)[C@@H](CO)O1)Nc1ccccc1	-5[16.7 µM]
C[C@@H]1CN([C@@H](C)CO)C(=O)c2ccccc2-c2ccccc2CO[C@@H]1CN(C)C(=O)N[C@H](C)c1ccccc1	-21[16.7 µM]
CCCCCCCCN1C(=O)[C@@H](CC(=O)NCCCCc2ccccc2)C[C@@]2(C(=O)OC)C1=C[C@H](C1CCCC1)O[C@@H]2C	21

Gathered by group: those above containing a CF3 group
SMILES	Env fusion inh
CCCNC(=O)N1C[C@H](C)[C@@H](OC)CN(C)C(=O)c2ccc(NS(=O)(=O)CC(F)(F)F)cc2OC[C@H]1C	-1[16.7 µM]
COC(=O)C1=C(C)N(Cc2ccccc2C(F)(F)F)C(=NCc2ccc3c(c2)OCO3)NC1c1cccc(Cl)c1 (stereo not given)	-276

6 entries out of the list above, arranged by the number in Env fusion inh, low to high.
compound	Env fusion inh
COC(=O)C1=C(C)N(Cc2ccccc2C(F)(F)F)C(=NCc2ccc3c(c2)OCO3)NC1c1cccc(Cl)c1 (stereo not given)	-276
Nc1ncnc2c1ncn2[C@@H]1O[C@H](C(=O)N[C@@H](CCc2ccccc2)C(=O)N2CCN(C(=O)N3CCOCC3)CC2)[C@@H](O)[C@H]1O	-29
COC(=O)[C@]12C[C@H](CC(=O)NCCCN3CCCC3=O)C(=O)N(Cc3ccc4c(c3)OCO4)C1=C[C@H](COCc1ccccc1)O[C@@H]2C	2
CCCCCCCCN1C(=O)[C@@H](CC(=O)NCCCCc2ccccc2)C[C@@]2(C(=O)OC)C1=C[C@H](C1CCCC1)O[C@@H]2C	21
CC(C)(C)c1ccc(-c2cc(NC(=O)Cc3c[nH]c4ccccc34)ccc2Nc2cccnc2)cc1	74*
COc1ccccc1-c1ccc(OCCCN2CCC(C(O)(c3ccccc3)c3ccccc3)CC2)cc1	97*

Further entries
SMILES	Env fusion inh
COC(=O)c1ccc2nc(-c3ccc(OC)c(OC)c3)c(Cc3ccccc3C(F)(F)F)n2c1	1
O=C(NCc1ccccc1)[C@@H]1CCCN1C(=O)[C@H]1CCCN1C(=O)c1ccccc1C(F)(F)F	-16
Cc1noc(C)c1S(=O)(=O)N(C)C[C@H]1Oc2ccc(NC(=O)Nc3ccccc3)cc2CC(=O)N([C@H](C)CO)C[C@@H]1C	-26[16.7 µM]
CC(C)NC(=O)N(C)C[C@H]1Oc2ccc(NS(=O)(=O)c3cccs3)cc2C(=O)N([C@@H](C)CO)C[C@H]1C	-45[16.7 µM]
COc1ccc(-c2ccccc2[C@H]2[C@@H](C#N)N(C(=O)C3CCCC3)[C@@H]2CO)cc1	20[16.7 µM]
C=CCN1C[C@H](COC(=O)c2cccc(OC)c2)Oc2cccc(F)c2S1(=O)=O	?
C[C@H]1CN([C@@H](C)CO)C(=O)c2cc(C3=CCCCC3)cnc2O[C@H]1CN(C)S(=O)(=O)c1cn(C)cn1	12[16.7 µM]
O=C([C@H]1[C@H](CO)[C@H]2Cn3c(ccc(C4=CCCCC4)c3=O)[C@@H]1N2Cc1nccs1)N1CCCCC1	26[16.7 µM]
CN[C@H]1C[C@H]2c3[nH]c4c(-c5ccccc5)cccc4c3CCN2C(=O)[C@H]1[C@H](C)O	-12
C[C@@H]1CN([C@@H](C)CO)C(=O)c2cc(-c3ccc(F)cc3)cnc2O[C@@H]1CN(C)C(=O)Cc1ccccn1	-6[16.7 µM]
CC=Cc1ccc2n(c1=O)C[C@@H]1[C@@H](CO)[C@H](C(=O)N[C@@H](C)c3ccccc3)N(C(=O)c3cnccn3)[C@H]21 (mixture of isomers)	2[16.7 µM]
O=C(NCc1ccccc1)[C@H]1[C@H](CO)[C@H]2Cn3c(ccc(-c4cccc(F)c4)c3=O)[C@@H]1N2	11[16.7 µM]
COc1cccc(C(=O)Nc2ccc3c(c2)C(=O)N(C)[C@H]2CC[C@@H](CC(=O)NCCCN4CCOCC4)O[C@H]2CO3)c1	-16[16.7 µM]
CCCNC(=O)Nc1ccc2c(c1)OC[C@H](C)N(C(=O)C1CCOCC1)C[C@H](C)[C@H](OC)CN(C)C2=O	-1[16.7 µM]
CO[C@H]1CN(C)C(=O)c2ccc(NS(=O)(=O)c3ccc(C)cc3)cc2OC[C@H](C)N(C(=O)NC(C)C)C[C@@H]1C	-12[16.7 µM]
CC(C)CNc1ccc2c(c1)OC[C@H](CC(C)C)NS2(=O)=O	2
Cc1cc2c(c(=O)o1)[C@@]1(C(=O)N(C)c3c(Br)cccc31)C1=C(CCCC1=O)O2	6
CN(C)c1cccc2c(S(=O)(=O)NCC3CCN(C(=O)C(=O)c4cccs4)CC3)cccc12	-18
COc1ccc(CN(C)C[C@H]2Oc3ccc(NC(=O)Cc4ccccc4)cc3C(=O)N([C@@H](C)CO)C[C@@H]2C)cc1	-18[16.7 µM]
O=c1[nH][nH]c2c([N+](=O)[O-])ccc(F)c12	13
COCc1cc(N2CCNC[C@@H]2C)ccc1N1C[C@@H](C)O[C@@H](C)C1	5
CCCC(=O)Nc1ccc2c(c1)OC[C@@H](C)N(C(=O)c1cccnc1)C[C@H](C)[C@@H](OC)CN(C)C2=O	-1[16.7 µM]
COc1ccc(NC(=O)N(C)C[C@@H]2Oc3c(NS(=O)(=O)c4ccccc4)cccc3C(=O)N([C@H](C)CO)C[C@@H]2C)cc1	-81[16.7 µM]
O=C(C1=C[C@H](C2CC2)C[C@H](OCc2ccc(CO)cc2)O1)N1CCCCCCC1	8[16.7 µM]
CC(C)c1ccc(OCCCN2CCC(C(O)(c3ccccc3)c3ccccc3)CC2)cc1	79*
Continued:
SMILES	Env fusion inh
CCCCNC(=O)C[C@H]1C[C@@]2(C(=O)OC)C(=C[C@H](C(C)(C)C)O[C@@H]2C)N(Cc2ccccc2)C1=O	24
C/C=C/c1cnc2c(c1)C(=O)N([C@H](C)CO)C[C@@H](C)[C@H](CN(C)C(=O)Nc1ccc(F)cc1)O2	4[16.7 µM]
C=CCN=C1NC(c2ccc(F)cc2)C(C(=O)OC)=C(C)N1C (stereo not given)	-6
C[C@H]1CN([C@@H](C)CO)C(=O)c2c(c3ccccc3n2C)-c2ccccc2CO[C@@H]1CN(C)C(=O)Cc1ccccc1	59*[16.7 µM]
O=C(C[C@@H]1CC[C@H]2[C@@H](COC[C@H](O)CN2Cc2cccc(-c3ccncc3)c2)O1)N1CCOCC1	-2[16.7 µM]
CN(C)CCCNC(=O)C[C@@H]1CC[C@@H]2[C@H](COC[C@@H](O)CN2S(=O)(=O)c2ccc(Cl)cc2)O1	28[16.7 µM]
CO[C@H]1CN(C)C(=O)c2ccc(NC(=O)c3ccccc3F)cc2OC[C@@H](C)N(C)C[C@@H]1C	-19[16.7 µM]
Cc1ccc(S(=O)(=O)N2CCC(C(=O)N3CCCCCCC3)CC2)cc1C	-5
C[C@H](CO)N1C[C@H](C)[C@@H](CN(C)Cc2ccc(C(=O)O)cc2)Oc2ccc(NC(=O)CCCN(C)C)cc2C1=O	2[16.7 µM]
NCC[C@@H]1CC[C@H](NC(=O)C2CC2)[C@@H](CO)O1	-18[16.7 µM]
COc1ccccc1-c1cn(CC[C@H]2CC[C@H](NC(=O)C3CC3)[C@@H](CO)O2)nn1	11[16.7 µM]
CN(C)CCCN1CC(=O)N2CCc3ccc(Br)cc3C2CC1=O (stereo not given)	13
CC(C)NC(=O)Nc1cccc2c1O[C@@H](CN(C)Cc1ccc(Cl)c(Cl)c1)[C@@H](C)CN([C@H](C)CO)C2=O	22[16.7 µM]
CCCC(=O)Nc1ccc2c(c1)C(=O)N(C)C[C@H](OC)[C@H](C)CN(C(=O)C1CCCC1)[C@H](C)CO2	-11[16.7 µM]
COc1ccc2c3c(n(C)c2c1)[C@@H](CO)N(Cc1ccc2c(c1)OCO2)CC31CN(C(=O)c2ccc3c(c2)OCO3)C1	4[16.7 µM]
CO[C@H]1CC[C@H]2CCN(C)C(=O)CCCN(C)C(=O)c3cccc(C#N)c3OC[C@@H]1O2	0[16.7 µM]
O=C(C[C@H]1CC[C@H]2[C@@H](COC[C@@H](O)CN2C(=O)Nc2ccc(F)cc2)O1)NCCCN1CCOCC1	-11[16.7 µM]
O=C(C[C@H]1C=C[C@@H](NC(=O)Nc2ccc3c(c2)OCO3)[C@@H](CO)O1)NCc1ccc2c(c1)OCO2	-15[16.7 µM]

A portion of the library; rates above refer to the full screens.
